Assay outcomes from PubChem.
HCMV NEC inh = disrupts HCMV UL50-UL53 complex binding; AID 1918969; actives 0.15% (n = 190,000); HTRF UL50-UL53 interaction, normalized percent inhibition; inhibition, % (test concentration not listed);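 active means both replicates at 50% or more, plus weaker picks with an unusually low signal ratio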;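 further: stock transfer was 100 nL into about 20 µL; 0% = negative control wells and 100% = wells with untagged competitor protein; inactives centre near -12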
Sa growth 42C = blocks Staphylococcus aureus growth; S. aureus RN4220 growth, OD600, 20 h, 42 °C; stronger effect = lower value; actives 0.53% (n = 170,000); relative growth, % (test concentration not listed);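 active means growth at 42 °C up to 50% and 20 or more points under that at 30 °C, or under 10% at both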;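 further: 300 nL library stock went into each well; scaled to the means of positive and negative controls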
GIV Gai3 FP = GIV-Galpha-i interaction inhibition | percent of control (FP), % (test concentration not listed) | Galpha-i3/FITC-GIV peptide fluorescence polarization, 90 min; stronger effect = lower value; scaled: aluminum fluoride 0%, vehicle 100% | actives 0.42% (n = 210,000);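 active means replicate mean at 85% of control or lower, very high polarization wells dropped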;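 further: wells of about 15 µL received 100 nL stock; the first replicate is given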
Target sequence (P08753 whole entry, looked up): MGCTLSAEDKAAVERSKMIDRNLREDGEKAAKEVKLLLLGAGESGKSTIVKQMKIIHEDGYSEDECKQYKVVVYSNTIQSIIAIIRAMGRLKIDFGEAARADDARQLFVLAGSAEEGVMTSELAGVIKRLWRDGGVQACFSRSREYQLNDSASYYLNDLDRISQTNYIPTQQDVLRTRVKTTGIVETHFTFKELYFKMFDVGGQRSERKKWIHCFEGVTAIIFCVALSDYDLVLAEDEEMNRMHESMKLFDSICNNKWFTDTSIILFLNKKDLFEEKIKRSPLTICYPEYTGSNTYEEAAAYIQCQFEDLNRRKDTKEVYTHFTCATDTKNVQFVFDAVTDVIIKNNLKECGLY
Sa growth 42C second temp = also measured in Sa growth 42C; calls as there; relative growth, %; measured here: growth at 30 °C;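 optical density after 20 h as mean of two plates; 100% = untreated growth and lower means inhibition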
The depositor's hits bear a star; . = no result given. These rows are one share of the data; the hit share may differ from the screen's.

| item | compound | HCMV NEC inh | Sa growth 42C |
| --- | --- | --- | --- |
| 1 | Cc1ccc(NC(=O)c2cccn(Cc3ccccc3C)c2=O)c(C)c1 | . | 101.8 |
| 2 | CNC(=O)O/N=C(\N)Cc1csc2ccccc12 | -26.0 | 106.9 |
| 3 | COc1ccc(CN2CCN(Cc3ccccc3)CC2)cc1 | -19.4 | 98.0 |
| 4 | C=C1C(O)(c2ccccc2)C2CC[N+]1(C)CC2 (stereo not given) | . | 79.6 |
| 5 | Cn1cc(C(=O)OCC(N)=O)c2ccccc21 | -22.8 | 93.0 |
| 6 | C=CCn1c(C)c(C(=O)OCC)c2cc(O)ccc21 | -24.3 | 89.6 |
| 7 | O=C1NC(c2cccnc2)Nc2ccccc21 (stereo not given) | -9.2 | 106.0 |
| 8 | CC1(C)COC(Nc2ccccc2)=N1 | -11.3 | 122.9 |

| item | Sa growth 42C second temp | GIV Gai3 FP |
| --- | --- | --- |
| 1 | 87.3 | 104.3 |
| 2 | 81.1 | 102.6 |
| 3 | 86.6 | 100.5 |
| 4 | 86.2 | 103.6 |
| 5 | 95.1 | . |
| 6 | 90.8 | 103.4 |
| 7 | 88.8 | . |
| 8 | 84.0 | 97.8 |

Down the list, as entered above:
HCMV NEC inh, entries 2–7: -26.0, -19.4, ., -22.8, -24.3, -9.2
Sa growth 42C, entries 2–7: 106.9, 98.0, 79.6, 93.0, 89.6, 106.0
Sa growth 42C second temp, entries 2–7: 81.1, 86.6, 86.2, 95.1, 90.8, 88.8

(cont.)
| item | compound | HCMV NEC inh | Sa growth 42C |
| --- | --- | --- | --- |
| 9 | C=C1N2CCC(CC2)C1(O)c1ccc(C)cc1 (stereo not given) | -7.1 | 117.2 |
| 10 | CCOc1ccc(N2C(=O)NC(=O)/C(=C/c3cn(CC(=O)Nc4ccccc4)c4ccccc34)C2=O)cc1 | 0.6 | . |
| 11 | CCN(CC)C(=O)c1sc2nc3c(cc2c1N)CN(C)CC3 | -75.6 | 99.0 |
| 12 | Cn1c(=O)cc(OCC(=O)N2CCC3(CC2)OCCO3)c2ccccc21 | -5.4 | 104.5 |
| 13 | O=c1c2ccccc2nc(COc2ccc(Cl)cc2)n1-c1ccc(Br)cn1 | -3.2 | . |
| 14 | N#CCC(=O)c1ccccc1 | -15.9 | 103.0 |
| 15 | FC(F)(F)c1cccc(NC2=NCCCS2)c1 | -36.6 | 112.9 |
| 16 | COc1ccccc1CN1CCN(Cc2ccccc2OC)CC1 | -39.6 | 86.2 |

| item | Sa growth 42C second temp | GIV Gai3 FP |
| --- | --- | --- |
| 9 | 108.5 | 103.1 |
| 10 | . | -4.9* |
| 11 | 87.0 | 101.9 |
| 12 | 89.0 | 101.5 |
| 13 | . | 98.1 |
| 14 | 73.5 | . |
| 15 | 83.5 | . |
| 16 | 92.8 | 103.8 |

Continued:
| item | compound | HCMV NEC inh | Sa growth 42C |
| --- | --- | --- | --- |
| 17 | Cc1ccccc1-n1nc(C)c2c1NC(=O)CSC2c1ccc(N(C)C)cc1 (stereo not given) | 4.1 | 111.9 |
| 18 | CN1CC=C(c2c[nH]c3ccccc23)CC1 | -20.4 | 79.9 |
| 19 | Cc1cc(Br)cc(Br)c1 | 6.9 | 103.5 |
| 20 | CN(C)c1ccc(NC(=O)c2sc3nc4c(cc3c2N)N2CCC4CC2)cc1 | -49.4 | 91.9 |
| 21 | C[C@H](Cc1ccc2c(c1)OC(C(=O)O)(C(=O)O)O2)NC[C@H](O)c1cccc(Cl)c1 | -27.2 | . |
| 22 | O=c1c2ccccc2nc(/C=C\c2ccc(F)cc2)n1-c1ccccc1F | . | 138.5 |
| 23 | CCOP(=S)(NC)OCC | 107.3 | 101.6 |
| 24 | CN1C2CCC1CC(OC(=O)C(c1ccccc1)c1ccccc1)C2 (stereo not given) | -18.7 | 83.8 |

| item | Sa growth 42C second temp | GIV Gai3 FP |
| --- | --- | --- |
| 17 | 79.4 | 105.2 |
| 18 | 86.3 | 101.3 |
| 19 | 98.7 | 99.9 |
| 20 | 103.7 | 114.4 |
| 21 | . | 104.5 |
| 22 | 90.3 | 109.7 |
| 23 | 101.8 | 103.0 |
| 24 | 86.6 | 99.9 |

Six of the compounds above, with bars between the fields.
item | mol | HCMV NEC inh | Sa growth 42C | Sa growth 42C second temp | GIV Gai3 FP
18 | CN1CC=C(c2c[nH]c3ccccc23)CC1 | -20.4 | 79.9 | 86.3 | 101.3
24 | CN1C2CCC1CC(OC(=O)C(c1ccccc1)c1ccccc1)C2 (stereo not given) | -18.7 | 83.8 | 86.6 | 99.9
17 | Cc1ccccc1-n1nc(C)c2c1NC(=O)CSC2c1ccc(N(C)C)cc1 (stereo not given) | 4.1 | 111.9 | 79.4 | 105.2
23 | CCOP(=S)(NC)OCC | 107.3 | 101.6 | 101.8 | 103.0
20 | CN(C)c1ccc(NC(=O)c2sc3nc4c(cc3c2N)N2CCC4CC2)cc1 | -49.4 | 91.9 | 103.7 | 114.4
19 | Cc1cc(Br)cc(Br)c1 | 6.9 | 103.5 | 98.7 | 99.9

Next results follow.
| item | compound | HCMV NEC inh | Sa growth 42C |
| --- | --- | --- | --- |
| 25 | c1ccc(CN2CCN(Cc3ccc4c(c3)OCCO4)CC2)cc1 | -6.6 | 100.1 |
| 26 | Fc1ccc(CNC2=NCCS2)cc1 | 2.9 | 119.9 |
| 27 | CCOC(=O)C1=C(C)OC(N)=C(C#N)C12C(=O)Nc1ccccc12 (stereo not given) | -13.6 | . |
| 28 | O=c1c2ccccc2nc(-c2ccco2)n1-c1nccs1 | -40.4 | 87.0 |
| 29 | O=C1NC(=O)C(=Cc2ccccc2)C(=O)N1 | 99.1* | 99.6 |
| 30 | c1ccc(C2CN3CCC2CC3)cc1 (stereo not given) | -12.4 | 90.5 |
| 31 | CC(=O)OCc1ccoc1C[N+](C)(C)C | -16.5 | 104.1 |
| 32 | N#Cc1c(/N=C/c2c(O)n(Cc3ccco3)c(=O)[nH]c2=O)sc2c1CCCC2 | 1.6 | 80.1 |
| 33 | N#Cc1ccccc1Cn1cc(C(=O)c2cccs2)c2ccccc21 | 0.9 | 103.8 |
| 34 | N=C1C(c2ccccc2)=C(O)CN1Cc1ccccc1 | 11.5 | 92.1 |
| 35 | CCN(CC)C(=O)c1ccc(NC(=O)CCn2nc(-c3ccc(Cl)cc3)c3ccccc3c2=O)cc1 | -35.5 | 93.8 |

| item | Sa growth 42C second temp | GIV Gai3 FP |
| --- | --- | --- |
| 25 | 112.9 | 101.1 |
| 26 | 96.3 | 107.2 |
| 27 | . | 100.4 |
| 28 | 79.8 | 96.8 |
| 29 | 93.1 | 28.9* |
| 30 | 80.9 | 94.5 |
| 31 | 89.1 | 108.0 |
| 32 | 66.5 | . |
| 33 | 80.4 | 105.5 |
| 34 | 74.4 | 103.9 |
| 35 | 86.1 | 112.3 |
